Source: PubChem BioAssay (National Center for Advancing Translational Sciences (NCATS))
VACV Venus inh = qHTS for Stage-Specific Inhibitors of Vaccinia Orthopoxvirus: Venus Reporter Primary qHTS; Potency, µM (titrated, usually from 36.5 µM), inactives show at the top dose activity change, negative = inhibition, actives largely listed as inhibitors; hit rate 0.46% among 330,000; Vaccinia virus Venus reporter expression, fluorescence; active means well fitted inhibition curve with a large enough effect; inconclusive means small, poorly fitted or top-dose-only effect; inactive means no such curve, though single readings can be large or run the other way; tested in A549 cells; note: nearly all actives have a fitted effect of over 30% in size; inactives centre near -10
Vaccinia mCherry = qHTS for Stage-Specific Inhibitors of Vaccinia Orthopoxvirus: mCherry Reporter Primary qHTS. hit rate 0.63% among 310,000. Vaccinia virus mCherry reporter infection, fluorescence; about a quarter of the inactives have no number. Potency, µM (highest dose often 36.5 µM), for the others: at the highest dose activity change, negative = inhibition, hits mostly inhibitors; active = well fitted inhibition curve with a large enough effect; inconclusive = small, poorly fitted or top-dose-only effect; inactive = no such curve, though single readings can be large or run the other way; tested in A549 cells; note: nearly all actives have a fitted effect of over 35% in size; inactives centre near -10
Active calls of the source: *; i = inactive; ? = inconclusive; nt = no result given; [ ] = dose if it differs, or a comment. % is set by controls: 0 for no effect and ±100 for the full control effect; potency is the fitted concentration of half-maximal effect. Compounds were not picked by outcome (roughly 0.87% active in at least one column).

SMILES | VACV Venus inh | Vaccinia mCherry
CCOc1cc(OCC)cc(C(=O)NCc2ccco2)c1 | -15.1% | -11.7%
O=C(CNC(=O)c1ccccc1F)NCCN1C(=O)S/C(=C\c2ccccc2Cl)C1=O | -18.8% | -12.7%
COc1ccc(Sc2nc(-c3ccccc3)ncc2OC)cc1 | -3.1% | i
Cc1ccc(CNC(=O)C2CC3Cn4c(nc5ccccc54)C3N2C)o1 (configuration not stated) | -5.2% | i
O=c1cc(-c2ccncc2)oc2ccccc12 | -24.1% | -24.8%
CN(Cc1cccc(F)c1)C(=O)c1ccc2c(=O)n3c(nc2c1)CCC3 | -2.2% | i
Cc1ccc(/C=C/C(=O)OC(C)C(=O)Nc2ncc(Cl)cc2Cl)o1 (configuration not stated) | -4.8% | -15.7%
Cn1c(=O)cc(OCC(=O)NCCCN2CCN(c3cccc(Cl)c3)CC2)c2ccccc21 | 2.5% | -12.0%
O=C(O)C1CCC(Cn2c(SCc3cc(=O)n4ccccc4n3)nc3ccsc3c2=O)CC1 (configuration not stated) | 2.6% | 2.8%
COc1ccc(-c2csc(NC(=S)NC(=O)c3cccs3)n2)cc1OC | -26.2% | i
CCc1ccc(NC(=O)C2C3/C=C\CCCCC32)cc1 (configuration not stated) | -16.0% | -21.2%
COc1cccc(NC(=O)C(Sc2nnc(Nc3ccccc3C)s2)c2ccccc2)c1 (configuration not stated) | ? | ?
O=C1CCCN1CCCNS(=O)(=O)c1ccc(Br)cc1 | 1.0% | 1.9%
CC1=Nc2ccccc2N=C(N)C1c1ccccc1 (configuration not stated) | 0.0% | -2.1%
O=C(Nc1cccc2ncccc12)c1ccc(Cl)cc1 | -8.1% | i
Cc1cccc(NC(=O)Nc2ccc(Cl)cc2)n1 | -5.2% | -14.9%
CN1CCN(c2ccc(-c3cc(NC=O)c4ncc(-c5ccccc5)n4c3)cc2)CC1 | -20.8% | -23.0%
Cc1ccc(C(=O)OCC(=O)N2CCCC2)cc1 | -6.8% | -8.5%
Cc1ccc(NC(=O)COC(=O)CCC2CCCC2)c(Br)c1 | -8.1% | i
O=C(/C=C/c1c(F)cccc1Cl)Nc1ccc(S(=O)(=O)Nc2ncccn2)cc1 | -11.3% | -15.4%
CC(C)(C)CC(C)(C)N1CNC(=S)NC1 | -13.1% | i
O=C(O)CN1CCc2ccccc2C1 | 1.7% | i
Clc1ccccc1N1CCN(Cc2ccc(Br)o2)CC1 | -9.8% | -14.4%
COCc1nnc(NC(=O)CSCc2ccccc2)s1 | 9.1% | -2.4%
COc1cccc(NC(=O)Cc2nnc(SCC(=O)NC3CCCC3)n2C)c1 | -11.4% | -15.0%

Some of the entries so far, tab-delimited:
Molecule	VACV Venus inh	Vaccinia mCherry
CCOc1cc(OCC)cc(C(=O)NCc2ccco2)c1	-15.1%	-11.7%
CN(Cc1cccc(F)c1)C(=O)c1ccc2c(=O)n3c(nc2c1)CCC3	-2.2%	i

Laid out differently: results already given
SMILES,VACV Venus inh,Vaccinia mCherry
COc1ccc(Sc2nc(-c3ccccc3)ncc2OC)cc1,-3.1%,i
O=C(O)CN1CCc2ccccc2C1,1.7%,i

2 entries from above, as tab-separated lines:
SMILES	VACV Venus inh	Vaccinia mCherry
O=C(O)C1CCC(Cn2c(SCc3cc(=O)n4ccccc4n3)nc3ccsc3c2=O)CC1 (configuration not stated)	2.6%	2.8%
COc1ccc(-c2csc(NC(=S)NC(=O)c3cccs3)n2)cc1OC	-26.2%	i

More compounds follow:
SMILES | VACV Venus inh | Vaccinia mCherry
CC(C)c1ccc(NC(=O)C(=O)c2cn(CC(=O)N3CCCCC3)c3ccccc23)cc1 | -5.9% | 13.8%
Cc1[nH]c2ccccc2c1C(=O)CNc1ccc(Br)cc1 | -14.3% | -14.5%
CC1CCCC(C)N1C(=O)CSc1ncccn1 (configuration not stated) | -9.4% | 23.9%
CC1CCCCC1NC(=O)CSc1nc2ccccc2c(=O)n1Cc1ccco1 (configuration not stated) | 0.0% | i
COc1ccc(-n2c(SCC(=O)NCc3cccs3)nnc2-c2ccoc2C)cc1 | -16.4% | -1.0%
CC12CCC(=O)N1C(C(=O)Nc1cc(C(F)(F)F)ccc1N1CCCCC1)CS2 (configuration not stated) | ? | -10.8%
CCn1nc(CC(=O)Nc2nnc(CC(=O)N3CCCC3)s2)c2ccccc2c1=O | -9.3% | -11.7%
Cc1ccc(NC(=O)C(C)Sc2n[nH]c(CNc3ccccc3)n2)cc1 (configuration not stated) | -21.2% | ?
CC(Sc1ccccc1)C(=O)NNC(=O)c1csc(N2CCOCC2)n1 (configuration not stated) | -16.2% | i
CCOc1cc(/C=N/N2CCN(Cc3ccccc3)CC2)ccc1O | -4.8% | -5.2%
CCCOc1ccc(F)cc1-c1cc(C(=O)NCc2cc(OC)cc(OC)c2)[nH]n1 | -13.1% | -28.4%
CCC(=O)N1CC(C)C(=O)Nc2ccccc21 (configuration not stated) | -6.6% | nt
O=C(CCCC(=O)NNC(=O)Nc1ccccc1)NNC(=O)Nc1ccccc1 | -6.7% | -11.7%
COCC(C)n1c(SCC(=O)NC2CCCCC2)nc2ccccc2c1=O (configuration not stated) | -3.5% | i
N#Cc1ccc(C(S(=O)(=O)Cc2ccccc2)S(=O)(=O)Cc2ccccc2)cc1 | -12.7% | -25.3%
O=C(NCC(c1ccco1)N1CCN(c2ccccc2)CC1)C(=O)NC1CC1 (configuration not stated) | -10.6% | i
O=C(N/N=C/C(Cl)=C/c1ccccc1)c1ccco1 | -7.0% | i
CC(C)n1c(=N)c(C(=O)NCc2cccnc2)cc2c(=O)n3ccccc3nc21 | -2.8% | -14.3%
CC(C)(C)C(=O)O/N=C(\N)c1ccc(Oc2cc(Cl)cc(Cl)c2)c([N+](=O)[O-])c1 | -3.8% | -9.5%
Cc1ccc(S/C(=N/S(=O)(=O)c2ccc(Cl)cc2)c2ccccc2)cc1 | -18.4% | 0.1%
CCc1nc2ccc(C(=O)N3CCN(S(=O)(=O)CC)CC3)cn2c1N(C=O)Cc1ccc(OC)cc1 | 4.7% | 6.7%
COC(=O)C1=CN(c2ccc(C(C)(C)C)cc2)C(N)=C(C#N)C1c1ccccc1F (configuration not stated) | -14.5% | ?
CN(C)c1ccc(C(CNC(=O)c2ccccc2Cl)N2CCc3ccccc32)cc1 (configuration not stated) | -5.9% | -1.9%
Cc1ccc([C@@H]2CC=C(C(=O)O)[C@H](c3ccc(Br)cc3)N2S(=O)(=O)c2ccccc2C)cc1 | -4.7% | -3.4%
O=S(=O)(NCC(c1cccs1)S(=O)(=O)c1ccccc1)c1ccc(F)cc1 (configuration not stated) | -11.7% | i
SMILES | VACV Venus inh | Vaccinia mCherry
CCCCn1c(N)c(N(CC(C)C)C(=O)c2ccc(OCc3c(C)noc3C)cc2)c(=O)[nH]c1=O | -9.9% | -15.8%
C=C1CSc2nc(=O)c3c4c(sc3n21)CCCC4 | -22.3% | nt
CC(C)N1CCN(C(=O)c2cccc(Cl)c2)CC1 | -10.7% | i
CNC(=S)N(Cc1ccco1)Cc1cc2cc3c(cc2[nH]c1=O)OCCO3 | -16.6% | -25.0%
CCOC(=O)C1=CC[C@@H](c2ccc(OC)cc2)N(S(=O)(=O)c2ccc(C)cc2)[C@H]1CC | -9.9% | 50.9%[activator]
COc1cccc(NC(=O)N2CCc3nc(NCc4cccc(Oc5ccccc5)c4)ncc3C2)c1 | ? | -6.5%
CCC(Sc1nc2cc(OC)c(OC)cc2c(=O)n1CCc1ccc(OC)c(OC)c1)C(=O)NCCOC (configuration not stated) | -16.3% | -3.2%
CCCCC/C=C\C/C=C\CCCCCCCC(=O)NCCO | -8.4%[3.33 µM] | i[3.33 µM]
O=C1C=C(c2ccccc2)C[C@@H](c2ccc(Cl)cc2)C1 | -18.6% | -26.6%
Cc1cc(Nc2ccc(Br)cc2)n2nc(-c3ccccc3C)nc2n1 | -25.3% | -28.8%
CCC(=O)Nc1c(S(=O)(=O)c2ccccc2)c2nc3ccccc3nc2n1Cc1ccccc1 | -14.6% | -7.4%
CCN1CCc2c(sc(NC(=O)CSc3ccccc3)c2-c2nc3ccccc3s2)C1 | -19.5%[7.34 µM] | -19.6%[7.34 µM]
Cc1ccc(C)c(OCCC(=O)Nc2ccccc2C(=O)NC2CC2)c1 | -10.0% | i
COc1cccc(-c2nc(S(=O)(=O)c3ccccc3)c(N3CCOCC3)o2)c1 | -4.0% | -1.7%
COc1cc(SC)ccc1C(=O)NCCOc1c(C)cc(C)cc1C | -1.4% | i
Cc1ccc(S(=O)(=O)N(C)C[C@H]2Oc3cc(C#Cc4ccccc4)ccc3S(=O)(=O)N([C@H](C)CO)C[C@@H]2C)cc1 | -28.7% | -22.0%
CCOc1ccccc1OCCCOc1ccc(C)cc1Br | 0.0% | -2.6%
Cc1cccc(N(C(=O)Cc2cccs2)C(C(=O)NC2CCCC2)c2ccncc2)c1 (configuration not stated) | -3.7% | -13.7%
Cc1ccc(C(=O)N(Cc2cc3cc4c(cc3nc2N2CCOCC2)CCC4)CC2CCCO2)s1 (configuration not stated) | -3.8% | -6.1%
CCCS(=O)(=O)NC(=O)C1(C)CCN(C(=O)c2cc(-c3cccs3)oc2C)C1 (configuration not stated) | 5.6% | -9.3%
CCCCCc1cc(=O)oc2c(C(CCN3CCCCC3)c3ccc(OC)cc3)c(OC)cc(OC)c12 (configuration not stated) | ? | 12.6µM*
O=c1c2ccccc2nc(-c2ccccc2Cl)n1O | -2.5% | -0.8%
Cc1ccc(NC(=O)C2CCN(C(=O)c3cnn(-c4ccccc4)c3-n3cccc3)CC2)cc1 | -17.4% | -11.5%
O=[N+]([O-])c1ccc(O)c(/C=N/n2c(-c3ccccc3)n[nH]c2=S)c1 | -13.5% | i
COc1ccc2nc3oc(C(=O)N4CCN(c5cc(C)ccc5C)CC4)cc3cc2c1 | -10.5% | i
SMILES | VACV Venus inh | Vaccinia mCherry
Cc1nn(-c2ccc(Cl)nn2)c(=O)c2ccccc12 | -7.8% | i
COc1cc(/C=C/C(=O)OC(C)C(=O)Nc2c(C)n(C)n(-c3ccccc3)c2=O)ccc1O (configuration not stated) | -11.8% | i
CCOc1ccc(Br)cc1S(=O)(=O)NC1=NCCCCC1 | -10.9% | -15.4%
COc1cccc(/C=C/C(=O)N2CC(C)OC(C)C2)c1OC (configuration not stated) | 9.7% | -10.0%
CCOC(=O)C1CCN(C(=O)C2CCN(S(=O)(=O)c3c(C)noc3C)CC2)CC1 | -2.5% | -10.6%
O=C(CCCN1C(=O)c2ccccc2C1=O)NC1CCCCCC1 | -0.8% | nt
CC1(C)Nc2ccc(O)cc2-c2c1ssc2=S | -22.5% | nt
COc1ccc(C(=O)N2[C@@H](C(C)C)COc3cc(Br)ccc3S2(=O)=O)cc1 | ? | -21.9%
O=C(CSc1nc(-c2cccs2)cc(C(F)(F)F)n1)Nc1cc(OCC(F)(F)F)cc([N+](=O)[O-])c1 | -29.8% | -5.7%
Cc1nn(CC2CC2)c(=O)n1-c1ccc(F)cc1 | -3.7% | -1.2%
O=C(NCCN1CCOCC1)c1cccnc1SCc1ccccc1Cl | -15.7% | i
O=C1CC(c2ccccc2)CC(O)=C1C=NCCCN1CCOCC1 (configuration not stated) | -8.4% | i
CCOC(=O)c1cccc(NC(=O)c2cc3c(-c4cccc(OC)c4)nn(C)c3s2)c1 | -3.2% | -1.8%
CCC(=O)c1c(O)cc(O)cc1O | -9.4% | -16.2%
CC(=O)Nc1ccc(N/C=C2/CCCC2=O)cc1 | 0.1% | -18.9%
Cc1ccc(/C(O)=C/c2nc3cc(C)ccc3oc2=O)cc1 | -18.7% | -8.3%
Cc1occc1C(=O)Nc1cccc(C(=O)NCc2ccccc2)c1 | -8.5% | -15.3%
FC(F)(F)c1cccc(-n2cc(-c3ccccc3)c3c(N4CCCCC4)ncnc32)c1 | 1.0% | -2.9%
O=C(COC(=O)c1ccco1)NCC1CCCCC1 | 5.8% | -14.7%
COc1cc2c(cc1OC)-c1nnc(-c3cccs3)n1C1(CCCC1)C2 | -21.0% | nt
O=C(Nc1ccc(Cl)cc1)Nc1ccc(N2CCC(C(F)(F)F)CC2)nc1 | 7.8%[7.34 µM] | -0.8%[7.34 µM]
O=C(CCN1C(=O)/C(=C\c2ccccc2)SC1=S)N1CCCCC1 | -6.7% | ?
Cc1cc(C(=O)N/N=C/c2cc(Cl)cc([N+](=O)[O-])c2O)n[nH]1 | -1.0% | -4.2%
COc1ccccc1N1CCN(c2cc(C)nc3nc(-c4ccc(C)cc4)nn23)CC1 | -28.2% | -28.8%
Cc1csc(N/N=C/c2c(F)cccc2Cl)n1 | 5.01µM* | 3.55µM*
SMILES | VACV Venus inh | Vaccinia mCherry
C[C@@H]1CN([C@@H](C)CO)C(=O)Cc2cc(NC(=O)Nc3ccc(C(F)(F)F)cc3)ccc2O[C@@H]1CN(C)S(=O)(=O)c1ccc(Cl)cc1 | 11.2µM* | ?
COC(=O)c1c(-c2ccc(OC)cc2)sc2cc3c(cc12)OCO3 | -14.4% | -14.8%
Oc1ccc(C23CC4CC(CC(C4)C2)C3)cc1O | ? | -21.6%
CCCCc1n(CC(=O)c2ccc(Cl)cc2)c2ccccc2[n+]1C | -18.1% | -14.0%
COCCCn1c2nc3ccccc3nc2c2c(=O)n(-c3ccccc3OC)cnc21 | 5.8% | nt
Cc1ccc(S(=O)(=O)NCCNC(=O)CN2CCOCC2)cc1 | -17.5% | -11.0%
N/C(=N\O)c1ccccc1-n1cccc1 | -5.9% | i
CC(=O)Nc1ccc2c(c1Br)Cc1ccccc1-2 | -14.8% | -8.7%
CCCNC(=O)Cn1c(SCc2ccccc2C)nc2ccncc21 | -8.6% | 7.9%
O=C(NC[P+](=O)O)OCc1ccccc1 | -12.7% | -9.6%
